# Screening data from PubChem.
# UCH37 inh: inhibitors of human deubiquitinating enzyme UCH37; purified proteasome/UCH37, Ub-AMC cleavage fluorescence; Q9Y5K5; 330,000 tested, 0.33% active; inhibition, % (test concentration not listed);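 active means mean of two replicates above 20%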;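 further: 0% = compound-free wells with enzyme and 100% = wells lacking proteasome; stock transfer was 100 nL into about 20 µL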
#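 system = Proteasome-associated human UCH37 deubiquitinase | amount = 0.15 nM proteasome as dispensed | medium = pH 7.4 Tris-HCl (50 mM) with ovalbumin, ATP-MgCl2, DTT | incubation = 30 min preincubation with enzyme, 25 min cleavage at room temperature | detection = AMC fluorescence 355/460 nm | read-out basis = percent inhibition | controls = no-proteasome and no-compound wells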
# E coli growth: E. coli growth inhibition; Escherichia coli growth, OD600, 23 h; active compounds read low; OD600 absorbance (concentration not given with the values); 330,000 tested, 0.21% active;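 active means OD600 absorbance below the run mean of sample wells minus 3.6 SD, in any replicate, cut at about 0.56 in these data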;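 further: stock transfer was 300 nL into about 60 µL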
# HNF4A DNA FP: change in binding of human HNF4 alpha to DNA; activity change, % at 10 µM; AID 1224865; HNF4a-FITC DNA binding, fluorescence polarization, 1 h; 360,000 tested, 0.3% active; in the data active means activity change above about 30%, passing the limit was not always enough;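 further: controls were the assay level and a saturating level of protein; the project sought stronger binding though the title names inhibitors; some compounds called inactive have numbers as strong as hits; positive values seem to mean higher polarization but the record does not say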
# Target sequence (P41235 whole entry, looked up): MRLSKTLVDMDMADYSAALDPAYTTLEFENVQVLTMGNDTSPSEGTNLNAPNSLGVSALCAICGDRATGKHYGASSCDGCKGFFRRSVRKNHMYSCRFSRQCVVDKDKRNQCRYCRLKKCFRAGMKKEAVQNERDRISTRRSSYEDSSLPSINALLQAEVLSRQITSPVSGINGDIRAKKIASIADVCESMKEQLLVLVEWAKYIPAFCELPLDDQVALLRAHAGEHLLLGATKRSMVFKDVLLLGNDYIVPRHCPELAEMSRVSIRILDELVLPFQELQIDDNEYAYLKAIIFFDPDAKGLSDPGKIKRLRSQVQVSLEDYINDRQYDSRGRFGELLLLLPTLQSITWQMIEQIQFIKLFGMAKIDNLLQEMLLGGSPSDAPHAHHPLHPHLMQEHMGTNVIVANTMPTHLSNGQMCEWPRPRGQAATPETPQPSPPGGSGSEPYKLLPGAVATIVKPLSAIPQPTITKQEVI
# ALR H2O2 inh: blocks human ALR sulfhydryl oxidase activity | AID 485317 | 290,000 tested, 3.8% active | inhibition, % (test concentration not listed) | P55789 | purified ALR, DTT oxidation, H2O2 HRP-luminol luminescence;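 active means mean and each replicate at 75% or more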;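 further: stock transfer was 7.5 nL into about 7.5 µL; 0% = neutral wells and 100% = wells with inactivated enzyme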
# rRNA inh HTS: inhibitors of bacterial rRNA selective over humanized ribosomes | E. coli WT GFP vs humanized-ribosome RFP mutants, fluorescence, 24 h; active compounds read low; DMSO median 0, no signal -100 | GFP signal change (wild-type ribosome), % (test concentration not listed) | AID 720706 | 350,000 tested, 1.6% active;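 active means significant combined selectivity score with lowered wild-type GFP, culture density cut under 30%, mutant RFP and density less affected; inactive means any of these conditions unmet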; further: one replicate is shown; some compounds called inactive have numbers as strong as hits
# FGF22 binding: binders of recombinant human FGF22 by thermal shift; Q9HCT0; SYPRO orange fluorescence; percent of sucrose octasulfate shift, DMSO zero; calls only at 9.99 µM; 340,000 tested, 1.5% active; AID 651658;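 active means melting point raised past a set limit in the mean and every replicate; three in four hits are not shown here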
# Target sequence (Q9HCT0 whole entry, looked up): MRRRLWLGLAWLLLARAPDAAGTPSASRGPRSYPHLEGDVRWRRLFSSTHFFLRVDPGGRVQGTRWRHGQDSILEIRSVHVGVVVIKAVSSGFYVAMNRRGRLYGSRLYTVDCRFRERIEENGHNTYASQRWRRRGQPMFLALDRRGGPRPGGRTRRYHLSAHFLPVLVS
# Beta2AR agonist: agonists of human beta-2 adrenergic receptor inducing internalization; response, % (concentration not given with the values); P07550; 340,000 tested, 0.43% active; Am2.2-beta2AR cells, FAP receptor internalization, flow cytometry; reference of the scale not given here;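 active means response above a set limit, near 3 SD of response in nonfluorescent compounds, cut at about 42% in these data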;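 further: stock transfer was 100 nL into about 11 µL; a reference agonist was the positive control; negative values mostly stem from fluorescent compounds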
# Target sequence (P07550 whole entry, looked up): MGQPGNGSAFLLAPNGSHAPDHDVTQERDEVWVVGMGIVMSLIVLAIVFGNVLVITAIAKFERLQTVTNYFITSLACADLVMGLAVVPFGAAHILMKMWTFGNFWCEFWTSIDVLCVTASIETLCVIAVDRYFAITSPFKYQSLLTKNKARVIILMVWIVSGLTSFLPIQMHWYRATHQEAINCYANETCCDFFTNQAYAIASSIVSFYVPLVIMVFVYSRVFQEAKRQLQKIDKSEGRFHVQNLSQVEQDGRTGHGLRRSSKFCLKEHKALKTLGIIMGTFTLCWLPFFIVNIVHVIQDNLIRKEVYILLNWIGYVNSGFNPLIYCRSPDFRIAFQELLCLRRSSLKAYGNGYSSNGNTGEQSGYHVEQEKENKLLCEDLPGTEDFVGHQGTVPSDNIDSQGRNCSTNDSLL
# rRNA inh HTS OD600: also measured in rRNA inh HTS; calls as there; OD600 change, %; measured here: OD600 growth;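 optical density of the mix in the first replicate; 0 = DMSO median and -100 = no signal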
# rRNA inh HTS RFP: further read-out of rRNA inh HTS, marked with its call; RFP signal change, %; measured here: RFP humanized mutant strains;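 first replicate; 0 = DMSO median and -100 = no signal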
# The depositor's hits bear a star; i = inactive; · = no result given; & = joins results of further samples. A portion of the library; rates above refer to the full screens.
SMILES	UCH37 inh	E coli growth	HNF4A DNA FP	ALR H2O2 inh	rRNA inh HTS	rRNA inh HTS OD600	rRNA inh HTS RFP	FGF22 binding	Beta2AR agonist
CC(=O)OC1OCCOC1NC(=S)Nc1cccc(C(F)(F)F)c1 (configuration not stated)	-0.3	0.7	2.5	8	2	-2	1.4	i	-1
O=C(CN1C(=O)C2CCCCC2C1=O)OCc1nnc(-c2ccccc2)o1 (configuration not stated)	1.0	0.72	1.0	·	2	-2	0.2	·	0
COCCNc1nc(Nc2ccccc2Cl)c2sccc2n1	·	·	4.4	·	-10	-10	-0.8	i	·
CC1(C)CC(=O)C2=C(C1)N(c1ccccc1)C(N)=C(C#N)C2c1ccsc1 (configuration not stated)	-0.6	0.7	-1.5	6	·	·	·	·	-5
COC(=O)c1cc(S(=O)(=O)N2CCC(c3cc(OC)ccc3OC)C2)c[nH]1 (configuration not stated)	3.7	0.69	-0.9	3	-7	-5	3.6	i	-2
CC(=O)c1ccc(O)c(CSC2=NCCS2)c1	3.1	0.64	-1.6	·	-13	-13	-3.7	i	-17
CCCC(=O)N/C(N)=N/c1nc(C)c2cc(C)ccc2n1	-17	0.6	4.6	-7	-8	-4	0.7	i	-8
Cc1ccc(NC(=O)c2ccc3c(c2)OCO3)cc1S(=O)(=O)N1CCOCC1	0.0	0.68	0.9	·	-18*	-7.9*	5.7*	i	1
COC(=O)c1[nH]c2ccccc2c1NC(=O)Oc1ccccc1	-20	0.78	-1.1	25	·	·	·	·	0
CCc1ccc2[nH]c(=O)c(C(c3nnnn3CCOC)N3CCN(c4ccc(F)cc4)CC3)cc2c1 (configuration not stated)	-0.7	0.75	0.7	·	·	·	·	·	1
Cc1cccc(Cn2c(C(C)O)nc3ccccc32)c1 (configuration not stated)	1.9	0.7	-0.6	·	·	·	·	·	7
Cc1ccc2c(c1)COc1c3ccc(C(=O)O)cc3nn1-2	3.1	0.69	-4.7	15	-12	-10	-2.3	i	0
O=C(CSc1nc2ccccc2[nH]1)Nc1ccc(N2CCOCC2)cc1	2.1	0.6	1.2	99*	1	-3	-1.4	i	-4
CCOc1ccc(-c2nc(C#N)c(N3CCN(C)CC3)o2)cc1	-76	0.61	1.6	-3	2	-6	-1.6	i	-5
COc1ccccc1CNC(=O)C1CCN(S(=O)(=O)c2ccc(N3CCCC3=O)cc2)CC1	0.3	0.67	1.0	-13	6	17	0.0	i	-9
COc1ccc(S(=O)(=O)N2CCCC2CNC(=O)C(=O)NCc2ccc(C)cc2)cc1 (configuration not stated)	0.9	0.7	3.1	-5	-11	-9	1.6	i	-2
O=C(Nc1nc2cc(Cl)ccc2s1)C1CCCN(S(=O)(=O)c2cccc3cccnc23)C1 (configuration not stated)	1.7	0.73	5.3	38	·	·	·	·	-8
CSc1ccc(S(=O)(=O)N2CCC(C(=O)NCc3ccco3)CC2)cc1	4.1	0.7	-4.0	-3	2	0	0.7	i	-7
Cc1cc(O)cc(=O)n1Cc1ccco1	2.7	0.75	-5.0	2	·	·	·	·	-8
COc1ccc(CN(C)CC(=O)Nc2ccccc2C(=O)NC2CC2)cc1	5.5	0.65	0.4	-3	-2	-5	-1.6	i	4
CCC(=O)N(Cc1cc2ccccc2[nH]c1=O)C(C)C	-7.5	0.7	1.0	-5	3	15	-2.0	·	-5
CC1(C)CC(NC(=O)c2cc(S(=O)(=O)N3CCOCC3)ccc2Cl)CC(C)(C)N1	2.4	0.69	-0.1	4	18	12	2.5	i	-1
CCOc1ccc(S(=O)(=O)N2CCCC(C(=O)Nc3cc(C)cc(C)c3)C2)cc1 (configuration not stated)	2.8	0.7	2.7	-3	4	4	-1.7	i	-15
CN(Cc1ccco1)C(=O)c1c[nH]c2ccc(S(=O)(=O)Nc3ccc4c(c3)OCCO4)cc2c1=O	3.0	0.66	-6.7	3	6	3	1.2	i	10

# Two entries from above, set out differently:
mol: O=C(CSc1nc2ccccc2[nH]1)Nc1ccc(N2CCOCC2)cc1
  UCH37 inh = 2.1
  E coli growth = 0.6
  HNF4A DNA FP = 1.2
  ALR H2O2 inh = 99*
  rRNA inh HTS = 1
  rRNA inh HTS OD600 = -3
  rRNA inh HTS RFP = -1.4
  FGF22 binding = i
  Beta2AR agonist = -4

mol: CCOc1ccc(-c2nc(C#N)c(N3CCN(C)CC3)o2)cc1
  UCH37 inh = -76
  E coli growth = 0.61
  HNF4A DNA FP = 1.6
  ALR H2O2 inh = -3
  rRNA inh HTS = 2
  rRNA inh HTS OD600 = -6
  rRNA inh HTS RFP = -1.6
  FGF22 binding = i
  Beta2AR agonist = -5

# Some of these compounds in order of SMILES length, low to high:
SMILES	UCH37 inh	E coli growth	HNF4A DNA FP	ALR H2O2 inh	rRNA inh HTS	rRNA inh HTS OD600	rRNA inh HTS RFP	FGF22 binding	Beta2AR agonist
Cc1cc(O)cc(=O)n1Cc1ccco1	2.7	0.75	-5.0	2	·	·	·	·	-8
Cc1cccc(Cn2c(C(C)O)nc3ccccc32)c1 (configuration not stated)	1.9	0.7	-0.6	·	·	·	·	·	7
Cc1ccc2c(c1)COc1c3ccc(C(=O)O)cc3nn1-2	3.1	0.69	-4.7	15	-12	-10	-2.3	i	0
COC(=O)c1[nH]c2ccccc2c1NC(=O)Oc1ccccc1	-20	0.78	-1.1	25	·	·	·	·	0
CCOc1ccc(-c2nc(C#N)c(N3CCN(C)CC3)o2)cc1	-76	0.61	1.6	-3	2	-6	-1.6	i	-5
COc1ccc(CN(C)CC(=O)Nc2ccccc2C(=O)NC2CC2)cc1	5.5	0.65	0.4	-3	-2	-5	-1.6	i	4
CSc1ccc(S(=O)(=O)N2CCC(C(=O)NCc3ccco3)CC2)cc1	4.1	0.7	-4.0	-3	2	0	0.7	i	-7
Cc1ccc(NC(=O)c2ccc3c(c2)OCO3)cc1S(=O)(=O)N1CCOCC1	0.0	0.68	0.9	·	-18*	-7.9*	5.7*	i	1
CCOc1ccc(S(=O)(=O)N2CCCC(C(=O)Nc3cc(C)cc(C)c3)C2)cc1 (configuration not stated)	2.8	0.7	2.7	-3	4	4	-1.7	i	-15
COc1ccc(S(=O)(=O)N2CCCC2CNC(=O)C(=O)NCc2ccc(C)cc2)cc1 (configuration not stated)	0.9	0.7	3.1	-5	-11	-9	1.6	i	-2
CC1(C)CC(NC(=O)c2cc(S(=O)(=O)N3CCOCC3)ccc2Cl)CC(C)(C)N1	2.4	0.69	-0.1	4	18	12	2.5	i	-1
O=C(Nc1nc2cc(Cl)ccc2s1)C1CCCN(S(=O)(=O)c2cccc3cccnc23)C1 (configuration not stated)	1.7	0.73	5.3	38	·	·	·	·	-8
CCc1ccc2[nH]c(=O)c(C(c3nnnn3CCOC)N3CCN(c4ccc(F)cc4)CC3)cc2c1 (configuration not stated)	-0.7	0.75	0.7	·	·	·	·	·	1
CN(Cc1ccco1)C(=O)c1c[nH]c2ccc(S(=O)(=O)Nc3ccc4c(c3)OCCO4)cc2c1=O	3.0	0.66	-6.7	3	6	3	1.2	i	10

# Other entries follow.
SMILES	UCH37 inh	E coli growth	HNF4A DNA FP	ALR H2O2 inh	rRNA inh HTS	rRNA inh HTS OD600	rRNA inh HTS RFP	FGF22 binding	Beta2AR agonist
CCOC(=O)Cc1csc(NS(=O)(=O)c2ccc(Cl)cc2)n1	0.3	0.66	6.5	7	1	5	-0.9	i	1
CC(C)OC(=O)CC(=O)CC(O)c1cccc([N+](=O)[O-])c1 (configuration not stated)	·	·	4.1	·	0	10	3.0	i	·
COC(=O)c1ccc(OCC(=O)NC(C)(C)C)cc1	-2.5	0.74	5.6	-5	·	·	·	·	7
CCC(=O)Nc1cc(-c2nn(CC(=O)N3CCCCC3)c(=O)c3ccccc23)ccc1N1CCOCC1	0.8	0.67	13	1	·	·	·	·	-9
Cc1[nH]c2ccc3ccccc3c2c(=O)c1C/C=C/Cl	-8.7	0.67	-2.5	·	6	6	1.2	i	12
COc1ccc(C=C(C(C)=O)C(=O)c2ccccc2)cc1	·	·	0.6	·	6	0	3.7	i	·
O=C(N/N=C/c1ccc(F)cc1)c1cc(-c2ccccn2)nc2ccccc12	·	·	-1.5	·	7	8	-0.4	i	-3
O=C(NCc1ccncc1)[C@@H]1CCCN1C(=O)[C@@H]1CCCN1C(=O)c1ccccc1	·	·	-0.4	·	5	10	-1.4	i	·
CC(=O)N1CCN(CCN2C(C)=CC(=C(C#N)C#N)C=C2C)CC1	8.8	0.65	0.0	2	4	-13	-3.5	i	8
COc1ccc(/C=N\NC(=O)c2ccc([N+](=O)[O-])cc2)cc1COc1c(F)c(F)cc(F)c1F	·	·	-0.1	-9	9	13	-0.6	i	-4
CCC(C(=O)N1CCN(Cc2ccc3c(c2)OCO3)CC1)n1c(=O)[nH]c2ccccc2c1=O (configuration not stated)	3.6	0.68	2.6	-2	2	2	1.6	i	12
COc1cccc(NC(=O)CSc2nnc(-c3cccnc3)o2)c1	1.3	0.67	-0.1	·	11	6	-1.2	i	-3
Cc1ccc(C)c(N=Nc2ccc(O)c3ncccc23)c1	5.2	0.74	1.0	-18	·	·	·	·	24
O=C(O)C1CCCCC1C(=O)Nc1ccc(-c2ccccc2)cc1 (configuration not stated)	3.4	0.64	2.9	-13	18	7	3.9	i	6
N/C(=N\NS(=O)(=O)c1cc(C(F)(F)F)cc(C(F)(F)F)c1)c1ccccn1	2.5	0.67	-1.8	85*	-3	3	-0.9	i	-3
COc1ccccc1-c1cc(C(=O)N2CCCC2)no1	2.1	0.65	2.2	-1	-2	-6	-4.0	i	-1
COc1ccc(S(=O)(=O)NC(CC(=O)NCc2ccccc2OC)c2ccco2)cc1 (configuration not stated)	2.5	0.79	0.6	-6	·	·	·	·	-1
Cc1ccc(C2CC(c3ccc(Cl)cc3)=NNC2=O)cc1 (configuration not stated)	1.1	0.74	0.1	-8	·	·	·	·	-3
CC(=O)O[C@@H]1C[C@H]2C(C)=C[C@H]3OC(=O)[C@@H](C)[C@H]3C[C@H]2[C@]1(C)O	-0.6	·	-2.0	3	11	8	-8.3	i	5
N/C(Cn1cncn1)=N\NC(=O)C(=O)Nc1ccc(Cl)cc1Cl	3.5	0.7	2.0	12	6	-8	-3.7	·	-3
Cn1c(=O)c2c(nc(CN3CCN(C(=O)c4ccco4)CC3)n2CCCO)n(C)c1=O	-0.9	0.72	2.5	-11	3	9	-2.3	·	-1
O=C(c1ccccc1)c1c2c(cc3sc4ccccc4[n+]13)-c1cccc3cccc-2c13	4.3	0.48*	6.7	-21	·	·	·	·	-166
CCN(C(=O)C(C)OC(=O)C1C(C(=O)OC)=C(C)NC(C)=C1C(=O)OC)c1ccccc1 (configuration not stated)	-51	0.68	-2.0	-15	19	9	3.5	i	-1
O=C(COC(=O)c1n[nH]c2ccccc12)Nc1ccccc1	2.6	0.64	-1.5	-1	-7	-5	0.3	i	19
CCc1ccc(N(C(=O)c2ccco2)C(C(=O)NC2CCCC2)c2cccnc2)cc1 (configuration not stated)	0.5	0.64	6.0	1	1	1	-0.4	i	8
Cc1nn(-c2ccccc2)c(C)c1C(=O)OCC(O)=C(C#N)c1nc2ccccc2[nH]1	2.3&4.4	0.67&0.68	16	·	-3	-10	8.7	i	16
N#C/C(=N\Nc1ccccc1)C(=N)N1CCCCC1	·	·	-1.7	99*	·	·	·	·	-5
